From PubChem BioAssay
ALR H2O2 inh: inhibitors of human ALR sulfhydryl oxidase, primary screen, biochemical, H2O2 detection, HRP-luminol luminescence, single point; FAD-linked sulfhydryl oxidase ALR (Homo sapiens), P55789; purified ALR, DTT oxidation; inhibition, % (concentration not given with the values); 290,000 tested, 3.8% active; AID 485317, 2010;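 active = mean and each replicate at 75% or more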;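 note: stock transfer was 7.5 nL into about 7.5 µL; 0% = neutral wells and 100% = wells with inactivated enzyme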
FGF22 binding: binders of human FGF22 protein, primary screen, FGF22 synaptogenesis inhibitor project, biophysical, thermal shift, single point | calls only at 9.99 µM | Fibroblast growth factor 22 (Homo sapiens), Q9HCT0 | recombinant FGF22 thermal shift, SYPRO orange fluorescence; percent of sucrose octasulfate shift, DMSO zero | 340,000 tested, 1.5% active;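 active = melting point raised past a set limit in the mean and every replicate; three in four hits are not shown here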
Target sequence (Q9HCT0 whole entry, looked up): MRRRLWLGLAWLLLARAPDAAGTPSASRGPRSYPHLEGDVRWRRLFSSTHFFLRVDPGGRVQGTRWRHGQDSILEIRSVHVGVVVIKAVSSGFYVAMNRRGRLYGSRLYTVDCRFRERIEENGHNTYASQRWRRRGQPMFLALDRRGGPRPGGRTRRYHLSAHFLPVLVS
E coli growth: E. coli growth inhibition, primary screen, OD600; OD600 absorbance (concentration not given with the values); 330,000 tested, 0.21% active; Escherichia coli growth, 23 h; active compounds read low; AID 1053175, 2014;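 active = OD600 absorbance below the run mean of sample wells minus 3.6 SD, in any replicate, cut at about 0.56 in these data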;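 note: stock transfer was 300 nL into about 60 µL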
Beta2AR agonist: beta2AR agonists driving receptor internalization, primary screen, cell-based, FAP fluorogen, flow cytometry. Beta-2 adrenergic receptor (Homo sapiens), P07550. Am2.2-beta2AR cells; reference of the scale not given here. response, % (concentration not given with the values). 340,000 tested, 0.43% active. AID 504454, 2011;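 active = response above a set limit, near 3 SD of response in nonfluorescent compounds, cut at about 42% in these data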;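 note: stock transfer was 100 nL into about 11 µL; a reference agonist was the positive control; negative values mostly stem from fluorescent compounds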
Target sequence (P07550 whole entry, looked up): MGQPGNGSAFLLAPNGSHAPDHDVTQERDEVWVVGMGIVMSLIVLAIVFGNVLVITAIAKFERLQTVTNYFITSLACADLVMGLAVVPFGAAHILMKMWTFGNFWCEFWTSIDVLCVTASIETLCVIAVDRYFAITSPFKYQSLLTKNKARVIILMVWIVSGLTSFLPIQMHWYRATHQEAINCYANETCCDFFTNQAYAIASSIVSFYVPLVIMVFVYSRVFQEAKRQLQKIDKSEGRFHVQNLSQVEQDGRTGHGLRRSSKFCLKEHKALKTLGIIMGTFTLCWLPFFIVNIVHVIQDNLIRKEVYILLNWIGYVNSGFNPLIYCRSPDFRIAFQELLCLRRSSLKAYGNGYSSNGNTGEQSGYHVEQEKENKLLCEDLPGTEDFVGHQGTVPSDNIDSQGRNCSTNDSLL
HNF4A DNA FP: change in binding of human HNF4A to DNA, primary screen, biochemical, fluorescence polarization, FITC-DNA. Hepatocyte nuclear factor 4-alpha (Homo sapiens), P41235. 1 h. activity change, % at 10 µM. 360,000 tested, 0.3% active; in the data active = activity change above about 30%, passing the limit was not always enough;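 note: controls were the assay level and a saturating level of protein; the project sought stronger binding though the title names inhibitors; some compounds called inactive have numbers as strong as hits; positive values seem to mean higher polarization but the record does not say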
Target sequence (P41235 whole entry, looked up): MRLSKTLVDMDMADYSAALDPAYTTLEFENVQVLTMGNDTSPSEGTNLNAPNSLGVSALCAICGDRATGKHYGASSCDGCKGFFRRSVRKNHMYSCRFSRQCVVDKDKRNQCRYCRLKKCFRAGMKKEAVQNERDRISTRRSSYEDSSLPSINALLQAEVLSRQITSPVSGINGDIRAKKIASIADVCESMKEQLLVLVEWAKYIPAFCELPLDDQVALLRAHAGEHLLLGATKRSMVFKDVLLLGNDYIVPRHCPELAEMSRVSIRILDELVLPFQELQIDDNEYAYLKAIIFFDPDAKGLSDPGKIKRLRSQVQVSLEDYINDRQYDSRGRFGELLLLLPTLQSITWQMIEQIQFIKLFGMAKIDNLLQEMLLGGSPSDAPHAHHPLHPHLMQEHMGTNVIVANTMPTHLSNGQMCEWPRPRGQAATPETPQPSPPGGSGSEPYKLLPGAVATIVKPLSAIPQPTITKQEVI
UCH37 inh: inhibitors of human UCH37 deubiquitinase, primary screen, biochemical, Ub-AMC cleavage, fluorescence | Ubiquitin carboxyl-terminal hydrolase isozyme L5 (Homo sapiens), Q9Y5K5 | purified proteasome/UCH37 | inhibition, % (test concentration not listed) | 330,000 tested, 0.33% active | AID 588478, 2011;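 active = mean of two replicates above 20%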;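 note: 0% = compound-free wells with enzyme and 100% = wells lacking proteasome; stock transfer was 100 nL into about 20 µL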
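Schedule: 30 min plus 25 min, room temperature / Material: human UCH37 within purified proteasomes / Technique: AMC fluorescence intensity at 355/460 nm / Buffer or medium: pH 7.4 Tris-HCl (50 mM) with ovalbumin, ATP-MgCl2, DTT / Controls: wells without proteasome as full block, compound-free enzyme plus substrate as uninhibited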
rRNA inh HTS: reduced GFP signal of wild-type E. coli, primary screen, bacterial rRNA inhibitor project, GFP/RFP fluorescence, OD600, single point; E. coli WT GFP vs humanized-ribosome RFP mutants, 24 h; active compounds read low; DMSO median 0, no signal -100; GFP signal change (wild-type ribosome), % (concentration not given with the values); 350,000 tested, 1.6% active; AID 720706, 2013;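 active = significant combined selectivity score with lowered wild-type GFP, culture density cut under 30%, mutant RFP and density less affected; inactive = any of these conditions unmet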; note: one replicate is shown; some compounds called inactive have numbers as strong as hits
rRNA inh HTS OD600: recorded beside rRNA inh HTS, whose call it bears; OD600 change, %; measured here: OD600 growth;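 optical density of the mix in the first replicate; 0 = DMSO median and -100 = no signal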
rRNA inh HTS RFP: also measured in rRNA inh HTS; calls as there; RFP signal change, %; measured here: RFP humanized mutant strains;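 first replicate; 0 = DMSO median and -100 = no signal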
* hit, by the source's call; i = inactive; . = not tested or not shown; & = joins results of further samples. Not all compounds are listed; count on the stated rates, not on these rows.

Compound,HNF4A DNA FP,FGF22 binding,rRNA inh HTS OD600,Beta2AR agonist,rRNA inh HTS,ALR H2O2 inh,UCH37 inh,rRNA inh HTS RFP,E coli growth
CC1CC(C)CN(S(=O)(=O)c2ccc(F)c(C(=O)Nc3ccc(Cl)cc3F)c2)C1 (stereo unspecified),-0.1,i,1,-3,8,-2,-2.0,-2.9,0.66
CCN(CC)c1ccc(NC2CC(=O)N(CCc3ccc(OC)cc3)C2=O)cc1 (stereo unspecified),57*,i,9,-1,2,8,3.9,9.0,0.74
CCC(=O)c1ccc(OCC(=O)O)cc1,-1.5,.,.,1,.,.,2.5,.,0.71
O=C(O)CCCNC(=O)C(c1ccccc1)c1ccccc1,1.9&3.2,i,5,4&8,0,0&4,1.0&0.1,-4.3,0.64&0.69
CCOc1ccc(-c2cc(C(=O)NCc3cc(C(F)(F)F)cc(C(F)(F)F)c3)[nH]n2)c(C)c1,5.5,i,17,.,10,.,.,0.1,.
CCOc1ccc(NC(=S)NC(C)CCc2ccccc2)cc1 (stereo unspecified),-1.5,i,-16,6,-2,0,2.0,-0.2,0.66
Cc1ccc(S(=O)(=O)Nc2nc3cc(C)c(C)cc3[nH]2)cc1,-0.5,i,9,13,17,2,1.2,1.7,0.69
O=C(O)CCCCCN1C(=O)/C(=C/c2ccncc2)SC1=S,2.1,.,.,3,.,-16,1.1,.,.
O=C(c1cc([N+](=O)[O-])ccc1N1CCCCC1)N1CCCC1,-1.3,i,11,-5,14,-5,11,1.2,0.73
COCCn1c(C)cc(C(=O)COC(=O)c2ccc(-n3nc(C)cc3C)cc2)c1C,-2.7,.,.,11,.,.,-1.7,.,0.72
CCC(=O)n1nc(-c2ccc(OC)cc2)nc1N,1.7,.,.,-6,.,5,-0.6,.,0.76
NC(Cc1ccccc1)c1csc(Nc2cc(Oc3ccccc3)ncn2)n1 (stereo unspecified),2.0,i,-48,.,-37,.,.,-7.6,.
Cc1ccccc1NC(=O)c1ccc(C)c(S(=O)(=O)NCc2cccnc2)c1,3.2,i,13,-4,7,-2,0.9,-0.4,0.6
O=C(Cc1ccc(Nc2nc3ccc(Br)cc3[nH]2)cc1)NCCc1cccs1,4.8,i,-18,-4,-14,73,4.1,6.0,0.65
CCCCNS(=O)(=O)c1ccc(NC(=O)c2c(-c3ccccc3Cl)noc2C)cc1,-4.9,.,.,-3,.,-12,-0.9,.,0.64
COc1ccccc1CNC(=O)C(=O)NCC1OCCN1C(=O)c1ccc(Cl)cc1 (stereo unspecified),-0.9,i,12,-9,6,-6,4.0,7.9,0.65
O=C1C=C(c2cccc(Cl)c2O)C[C@@H](c2ccc(Cl)cc2)C1,-0.8,i,-29,0,-29,3,2.4,-14,.
Nc1nc2c(-c3ccc(Br)cc3)nnn2c2ccccc12,3.3,i,20,-5,18,-1,-167,4.3,0.66
COC(=O)c1c(NC(=O)c2cccs2)sc2c1CCC(C)C2 (stereo unspecified),0.1,.,.,-4,.,-1,-0.9,.,0.72
CN(Cc1ccccc1)C(=O)c1cc(S(=O)(=O)N2CCOCC2)cn1C,-0.2,i,4,11,-1,-1,-0.9,-3.7,0.79

Next entries follow.
Compound,HNF4A DNA FP,FGF22 binding,rRNA inh HTS OD600,Beta2AR agonist,rRNA inh HTS,ALR H2O2 inh,UCH37 inh,rRNA inh HTS RFP,E coli growth
CN/C(=C\[N+](=O)[O-])NCCSCc1csc(CN(C)C)n1,-2.7,i,.,-5,.,-7,3.9,.,.
COc1cc(OC)c(OC)cc1C#N,3.6,i,.,3,.,-54,1.2,.,0.73
C/C=C/c1ccc(OCCN2CCc3ccccc3C2)c(OC)c1,1.8,i,-16,7,-1,.,4.9,2.0,0.66
COc1cc(-c2nnc(SC/C=C/c3ccccc3)n2N)cc(OC)c1OC,-1.9,.,.,4,.,-3,1.1,.,0.62
COc1ccc(Cl)cc1NC(=O)CCNC(=O)Cn1ccc2ccccc2c1=O,3.0,.,.,-7,.,2,-5.1,.,0.7
CSCCC(Nc1ccc(S(=O)(=O)N2CCOCC2)cc1[N+](=O)[O-])C(=O)OCC(=O)N(C(C)C)C(C)C (stereo unspecified),2.2,i,-4,7,5,-3,0.5,1.5,0.67
O=C(NC1CCCCC1)NC1C2CC3CC(C2)CC1C3 (stereo unspecified),-0.1,i,16,-15,5,-6,-2.6,1.1,0.69
Clc1ccc(OCc2cn3cccnc3n2)c2ncccc12,-2.0,.,.,-5,.,.,-7.3,.,0.66
O=C(OCC(=O)N1CCN(C(=O)COC(=O)c2ccccc2NCCO)CC1)c1ccccc1NCCO,-0.1,i,5,0,4,.,i,0.5,0.71
CC(C)(C)NC(=O)CSc1nc(-c2ccccc2)cc(=O)[nH]1,-2.9,i,8,-7,10,-18,1.9,-4.1,0.7
Cc1cc(CNC(=O)CCc2nnc(CCCCc3ccccc3)o2)nn1C,1.8,i,4,1,-1,-1,-0.3,-1.8,0.68
O=C(CSc1ccccn1)C12CC3CC(CC(C3)C1)C2,-1.3,i,-71,-6,-47,1,2.1,-18,0.67
O=C(CNC(=O)N1CC(=O)Nc2ccccc21)Nc1cccc(F)c1,-2.3,i,0,-13,-4,0,1.8,-2.4,0.67
Cc1cc(NC2C3CC4CC(C3)CC2C4)n2ncnc2n1 (stereo unspecified),0.0,i,-14,-16,-17,-11,0.2,-3.4,0.7
COc1cc(/C=C/C(=O)O)ccc1OS(=O)(=O)c1cc(C)ccc1C,0.1,i,-11,14,1,19,3.2,-0.2,0.71
O=C(Nc1ccc(F)cc1F)c1ccc(-n2cccn2)c([N+](=O)[O-])c1,-2.3,.,-1,-1,-2,-2,5.7,-0.1,0.67
CCOc1ccc(S(=O)(=O)c2c[nH]c3ccccc3c2=O)cc1,0.7,i,-13,-3,-9,-5,-0.3,27,0.66
CC1CCN(C(=O)C(Cc2ccccc2)NS(=O)(=O)c2ccc3c(c2)oc(=O)n3C)CC1 (stereo unspecified),-0.8,i,10,-28,6,-3,5.4,-0.4,0.71
Cc1cccc(NC(=O)COC(=O)c2ccc3c(=O)n4c(nc3c2)CCC4)c1,4.6,.,.,-5,.,-3,-2.3,.,0.68
CS(=O)(=O)N(Cc1ccc(Cl)cc1)c1ccc(C(=O)N/N=C/c2cc3ccccc3nc2Cl)cc1,-0.5,.,.,-1,.,-4,.,.,.

(listing goes on)
Compound,HNF4A DNA FP,FGF22 binding,rRNA inh HTS OD600,Beta2AR agonist,rRNA inh HTS,ALR H2O2 inh,UCH37 inh,rRNA inh HTS RFP,E coli growth
Cc1ccc(SCC(=O)OCc2csc(CC(=O)Nc3ccccc3C)n2)cc1C,5.7,i,9,-1,9,99*,-0.4,34,0.65
CCCCNC(=O)C[C@@H]1C[C@@]2(C(=O)OCC)CCCC=C2N(CCc2ccc(OC)c(OC)c2)C1=O,3.6,i,0,.,-1,.,.,12,.
COCCNC(=O)C1CCN(S(=O)(=O)c2c(C)noc2/C=C/c2cccs2)CC1,-1.3,i,-1,-12,3,-12,11,6.1,0.71
CC(=O)Nc1ccccc1OCc1nnc(-c2ccccc2Cl)o1,-1.1,i,-25,1,-20,-3,4.8,-2.5,0.65
COc1ccc(NCc2ccc(OC)c(Cn3ccnc3)c2)c(OC)c1,-6.9,i,-12,-10,-7,99*,-0.2,0.3,0.62
Cc1ccc([N+](=O)[O-])cc1S(=O)(=O)NCC1COc2ccccc2O1 (stereo unspecified),-0.5,i,3,-8,-12,-2,.,-3.0,.
CCCC1=C(C(=O)OCC)C(c2cc(Cl)cc(OC)c2OCc2ccccc2)NC(=O)N1 (stereo unspecified),-2.2,.,.,-5,.,-3,1.5,.,0.7
CCN(CC)CCCNC(=S)N(Cc1cccnc1)Cc1cc2cc(C)cc(C)c2[nH]c1=O,2.5,i,5,11,-7,.,-2.8,9.4,0.69
CN(C)CCNc1nc2c(c(=O)[nH]c(=O)n2C)n1CCOc1ccccc1,-1.6,i,6,-6,9,.,3.2,-1.1,0.66
NCc1ccccc1COc1ccccc1,-0.6,i,7,6,21,0,5.9,-2.3,0.69
CC(C)(C)NC(=O)COC(=O)c1ccc(O)cc1,1.0,.,.,-9,.,-3,7.7,.,0.68
CC(C)(C)c1cc(C(=O)O)n(Cc2ccc(Cl)cc2Cl)n1,-2.0,i,.,2,.,-13,6.0,.,0.68
CCc1cc(=O)n2[nH]c(C)c(-c3ccc(OC)cc3)c2n1,-3.9,i,-8,-12,-8,33,5.8,-1.4,0.69
COc1ccccc1CCNC(=O)c1cc(-c2ccccn2)nc2ccc(Br)cc12,.,.,.,.,.,-6,1.2,.,0.7
CCOc1nnc(C)c2c(C)n(-c3cccc(Cl)c3)nc12,35,.,.,-60,.,-1,-0.4,.,0.66
CCCCN=C1C([N+](=O)[O-])=CC=C2C1=NC1(CCCCC1)N2O,0.4,.,.,-12,.,-1,6.1,.,0.71
O=C(Nc1cccc(Cl)c1)Nc1nnc(CC2=CCCCC2)s1,2.9,i,3,13,2,-9,4.6,-0.3,0.71
COc1cc2sc(-c3ccc(S(C)(=O)=O)cc3)c(C#CCO)c2cc1OC,1.6,i,-15,32,-19,-3,-12,1.4,.
CCc1nc2ccc(C(=O)NCc3cccs3)cn2c1N(CC)CCOC,-4.4,i,-5,.,-2,.,.,-0.8,.
O=c1[nH]c2ccc(S(=O)(=O)Nc3ccc(Br)cc3)cc2[nH]1,-3.9,i,-12,5,-14,.,4.5,-1.6,0.7

Full records, looked up by structure.
Shown for COCCNC(=O)C1CCN(S(=O)(=O)c2c(C)noc2/C=C/c2cccs2)CC1 → HNF4A DNA FP: -1.3; FGF22 binding: i; rRNA inh HTS OD600: -1; Beta2AR agonist: -12; rRNA inh HTS: 3; ALR H2O2 inh: -12; UCH37 inh: 11; rRNA inh HTS RFP: 6.1; E coli growth: 0.71
Shown for CN(C)CCNc1nc2c(c(=O)[nH]c(=O)n2C)n1CCOc1ccccc1 → HNF4A DNA FP: -1.6; FGF22 binding: i; rRNA inh HTS OD600: 6; Beta2AR agonist: -6; rRNA inh HTS: 9; ALR H2O2 inh: .; UCH37 inh: 3.2; rRNA inh HTS RFP: -1.1; E coli growth: 0.66

(continued)
Compound,HNF4A DNA FP,FGF22 binding,rRNA inh HTS OD600,Beta2AR agonist,rRNA inh HTS,ALR H2O2 inh,UCH37 inh,rRNA inh HTS RFP,E coli growth
CCC1CN(C(=O)NCc2ccc(F)cc2)c2cc(C)ccc2O1 (stereo unspecified),1.8,i,-38,8,-20,-5,3.8,-6.0,0.7
CN(Cc1ccc(F)cc1)C(=O)CCc1nnc(-c2ccccc2)o1,1.7,i,-2,-12,-5,-16,2.3,-0.7,0.65
Clc1cccc(CNCC2CCCO2)c1Cl (stereo unspecified),-3.6,i,11,-4,7,-8,2.3,2.0,0.67
C=CCC[C@@H](Cc1ccc(F)cc1)C(=O)OC[C@@H](Cc1c[nH]c2ccccc12)NC(=O)[C@@H](CC=C)CC(=O)N[C@H](CO)Cc1ccccc1,-7.2,i,3,-5,10,-3,-0.1,1.0,.
O=C(c1ccc(COc2c(F)c(F)cc(F)c2F)o1)N1CCN(c2ccc(Cl)cc2)CC1,-2.2,.,.,-1,.,-6,3.1,.,0.76
CCn1c(CCNC(=O)c2ccc(OC)cc2)nnc1SCc1ccc(Cl)cc1Cl,-2.9,.,.,7,.,2,2.9,.,0.7
C[C@H](NC(=O)[C@@H]1Cc2ccccc2CN1C(=O)OC(C)(C)C)C(=O)NC1CCCCC1,3.2,i,7,-6,0,1,-0.4,1.6,0.68
